# Beta cell apopt: blocks beta cell apoptosis; INS-1E cytokine-induced death, ATP luminescence, 48 h; percent of positive-control rescue, neutral wells zero; protection from apoptosis, % (no concentration beside the values); actives 0.8% (n = 300,000);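 active = all replicates at 75% or more, or half of them and the mean; inconclusive = half reach 75% but not the mean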;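 note: 0% = cytokine-treated negative control wells and 100% = positive control rescue; higher means more ATP so stronger rescue from cytokine killing; wells of about 40 µL received 100 nL stock; the first replicate is given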
# ALR inh: human ALR oxidase inhibition via reduced H2O2 | P55789 | purified ALR, DTT oxidation, H2O2 HRP-luminol luminescence | inhibition, % (test concentration not listed) | actives 3.8% (n = 290,000);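 active = mean and each replicate at 75% or more; inconclusive = only one of the two met; inactive = neither met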;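 note: stock transfer was 7.5 nL into about 7.5 µL; 0% = neutral wells and 100% = wells with inactivated enzyme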
# T cruzi inh: blocks replication of Trypanosoma cruzi | inhibition, % (concentration not given with the values) | T. cruzi beta-gal in NIH3T3, luminescence, 90 h | actives 1.4% (n = 300,000);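 active = mean inhibition across valid replicates above about 55%, limit read from the data; inconclusive = mean below that limit but half or more replicates reach it; inactive = mean below it, under half of replicates reach it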;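 note: signal also drops with host cell toxicity which is not excluded here; 0% = plate median of DMSO wells and 100% = zero luminescence signal; higher percent means less beta-gal luminescence so fewer parasites; stock transfer was 50 nL into about 50 µL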
# B2AR ag: activates human beta-2 adrenergic receptor causing internalization | P07550 | Am2.2-beta2AR cells, FAP receptor internalization, flow cytometry; reference of the scale not given here | response, % (test concentration not listed) | actives 0.43% (n = 340,000) | AID 504454;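 active = response above a set limit, near 3 SD of response in nonfluorescent compounds, cut at about 42% in these data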;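 note: stock transfer was 100 nL into about 11 µL; a reference agonist was the positive control; negative values mostly stem from fluorescent compounds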
# Calb FLC: affects C. albicans growth with fluconazole; C. albicans CaCi-2 (fluconazole-resistant clinical isolate) + fluconazole, Alamar Blue growth, 48 h; growth inhibition, % (test concentration not listed); actives 0.57% (n = 300,000);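 active = most replicates above 75%; inconclusive = exactly half above 75%; inactive = most below 75%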;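 note: all wells also contain fluconazole at 8 µg/ml as a sub-toxic cotreatment; 0% = median of DMSO wells and 100% = median of geldanamycin control wells; wells of about 8 µL received 7.5 nL stock; the first replicate is given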
# Ecoli rRNA inh: inhibitors of bacterial rRNA selective over humanized ribosomes. AID 720706. GFP signal change (wild-type ribosome), % (no concentration beside the values). actives 1.6% (n = 350,000). E. coli WT GFP vs humanized-ribosome RFP mutants, fluorescence, 24 h; stronger effect = lower value; DMSO median 0, no signal -100;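 active = significant combined selectivity score with lowered wild-type GFP, culture density cut under 30%, mutant RFP and density less affected; inactive = any of these conditions unmet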; note: one replicate is shown; some compounds called inactive have numbers as strong as hits
# Bfl-1 A1 inh: inhibitors of the anti-apoptotic protein A1, read as caspase activation | MEF A1-2A-BIM cells, Caspase-Glo 3/7 luminescence, 3 h; percent of clofoctol response, vehicle zero | caspase activation, % (no concentration beside the values) | actives 0.066% (n = 330,000);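 active = over half of replicate activation scores above 10%, or exactly half above 10 with the replicate mean above 10; inconclusive = replicate mean below 10 yet half the replicates above 10; inactive = over half of replicates below 10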;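 note: wells of about 30 µL received 50 nL stock; many hits fall short of the cut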
# LANA-H2A inh: blocks KSHV LANA binding to histone H2A/H2B; Q9QR71; cell-free LANA-H2A/H2B peptide, fluorescence polarization; inhibition, % (concentration not given with the values); actives 0.6% (n = 320,000); in the data active = inhibition mostly above about 10%, no sharp cut-off; inactive = mostly below about 6.7%;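 note: stock transfer was 7.5 nL into about 10 µL; 0% = median of vehicle wells and 100% = median of positive control wells; one replicate is shown; the record names a cut of 25% in any replicate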
# Target sequence (Q9QR71 whole entry, looked up): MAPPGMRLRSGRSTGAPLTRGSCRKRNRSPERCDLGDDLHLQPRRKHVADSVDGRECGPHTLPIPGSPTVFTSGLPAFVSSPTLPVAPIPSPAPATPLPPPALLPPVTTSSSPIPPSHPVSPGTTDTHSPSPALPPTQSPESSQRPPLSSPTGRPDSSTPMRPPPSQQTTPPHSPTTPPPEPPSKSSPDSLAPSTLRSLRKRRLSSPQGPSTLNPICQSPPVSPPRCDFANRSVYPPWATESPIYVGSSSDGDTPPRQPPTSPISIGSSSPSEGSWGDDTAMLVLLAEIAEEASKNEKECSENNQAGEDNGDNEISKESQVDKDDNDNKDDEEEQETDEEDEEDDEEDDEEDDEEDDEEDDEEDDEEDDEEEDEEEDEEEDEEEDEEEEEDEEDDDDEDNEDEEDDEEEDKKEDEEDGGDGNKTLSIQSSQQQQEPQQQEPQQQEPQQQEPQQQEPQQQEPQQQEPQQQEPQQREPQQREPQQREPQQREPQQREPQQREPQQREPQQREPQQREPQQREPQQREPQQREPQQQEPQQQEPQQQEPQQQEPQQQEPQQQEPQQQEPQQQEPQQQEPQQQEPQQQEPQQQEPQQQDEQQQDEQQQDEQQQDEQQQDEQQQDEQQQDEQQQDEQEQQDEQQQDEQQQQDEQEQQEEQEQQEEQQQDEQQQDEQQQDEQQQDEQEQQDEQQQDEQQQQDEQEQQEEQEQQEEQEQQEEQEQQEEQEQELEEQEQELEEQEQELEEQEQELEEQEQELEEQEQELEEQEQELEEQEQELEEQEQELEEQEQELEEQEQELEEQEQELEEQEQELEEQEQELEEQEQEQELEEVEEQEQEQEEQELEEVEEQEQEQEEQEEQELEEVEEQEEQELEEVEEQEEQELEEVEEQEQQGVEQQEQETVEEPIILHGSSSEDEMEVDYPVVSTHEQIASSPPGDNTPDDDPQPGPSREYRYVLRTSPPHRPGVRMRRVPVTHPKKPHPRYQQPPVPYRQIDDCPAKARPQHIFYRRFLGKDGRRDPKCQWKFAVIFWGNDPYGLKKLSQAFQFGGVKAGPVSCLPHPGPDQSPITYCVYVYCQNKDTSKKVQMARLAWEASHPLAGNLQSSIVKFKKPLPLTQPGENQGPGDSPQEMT
# Ecoli rRNA inh OD600: also measured in Ecoli rRNA inh; calls as there; OD600 change, %; measured here: OD600 growth;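 optical density of the mix in the first replicate; 0 = DMSO median and -100 = no signal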
# Ecoli rRNA inh RFP: further read-out of Ecoli rRNA inh, marked with its call; RFP signal change, %; measured here: RFP humanized mutant strains;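 first replicate; 0 = DMSO median and -100 = no signal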
# The depositor's hits bear a star; ? = inconclusive; nt = no result given. This is a subset (hit frequency here may not be typical).
Structure	Beta cell apopt	ALR inh	T cruzi inh	B2AR ag	Calb FLC	Ecoli rRNA inh	Ecoli rRNA inh OD600	Ecoli rRNA inh RFP	Bfl-1 A1 inh	LANA-H2A inh
CC(C)c1ccc(/C=N/NC(=O)c2ccccn2)cc1	5	0	-6	-2	5	-2	-2	-6.9	-7.4	1.5
Cc1ccccc1NS(=O)(=O)c1ccc2c3c(cccc13)C(=O)N2C	nt	-13	17	6	13	1	2	0.1	0.3	3.0
CCCC(=O)Nc1ccc(NC(=O)c2cccs2)cn1	-4	3	7	-12	nt	nt	nt	nt	0.0	-5.4
O=C(NNC(=O)c1cc(Cl)nc2ccccc12)c1ccccc1F	nt	-4	-6	-1	1	-11	-2	-5.3	-0.3	1.6
Cc1cc(C)cc(NC(=O)CSc2nccn2Cc2ccco2)c1	-1	8	-13	-3	0	1	-6	0.6	0.2	1.3
O=c1c2ccccc2[nH]c(=S)n1CCCN1CCOCC1	-1	87*	-18	-18	-1	nt	nt	nt	0.0	-1.5
O=C(NCC1CCCO1)/C(=C\c1ccccc1F)NC(=O)c1ccccc1 (centres undefined)	0	2	31	-4	0	6	2	-0.8	0.1	9.3
Cc1nnc(SCc2nc3ccccc3[nH]2)s1	-4	6	-4	-3	-6	nt	nt	nt	-0.1	4.0
OCC[C@@H]1C[C@H](O)[C@@H](O)[C@]2(CCc3ccccc3CO2)O1	-1	4	-14	-1	4	14	17	-0.1	0.3	0.6
CC(=O)N1CCc2cc(Br)cc(S(=O)(=O)N3CCN(C(=O)c4ccco4)CC3)c21	3	9	4	-22	4	nt	nt	nt	-0.2	-1.4
CCC1CCCCN1C(=O)CSc1n[nH]c(N)n1 (centres undefined)	-2	1	nt	-3	nt	7	17	2.0	0.1	-3.1
O=c1cc(-c2ccc(O)cc2)oc2ccccc12	-6	-16	12	-8	-14	nt	nt	nt	-0.5	-3.3
COc1ccc(CCNC(=O)Cn2cccc2C(=O)c2ccccc2)cc1OC	9	-95	-2	1	1	-3	-3	-1.7	0.3	-1.5
O=C1CCCC/C1=C\Nc1ccc(C(=O)O)c(O)c1	-1	12	-10	-4	-27	17	9	6.2	-7.6	-2.3
COc1ccc(CNn2c(-c3cccs3)nc3ccccc3c2=O)cc1OC	nt	-5	26	-10	-24	2	4	-6.3	0.4	-0.3
COc1ccc(C(=O)CSc2nc(C(C)(C)C)nc3ccccc23)cc1	4	-1	23	1	0	-31	-36	-3.8	-0.1	-7.6
CCOc1ccc(CCNC(=O)C2CCCN2C(=O)OCc2ccccc2)cc1OCC (centres undefined)	-1	2	-3	5	27	-2	1	2.3	0.3	-0.2
C=C(C)Cn1c(N2CCN(CC)CC2)nc2c1c(=O)[nH]c(=O)n2C	0	-1	-16	-1	0	1	5	-2.5	1.9	3.4
O=C(COc1ccc(Cl)cc1Cl)N1CCN(c2ccccn2)CC1	-3	-3	-3	-7	-2	-2	0	-3.5	-0.3	1.4
CC1CCC(N2CCN(S(=O)(=O)Cc3ccccc3)CC2)CC1 (centres undefined)	-3	-5	-16	6	-22	-24	-38	-8.1	0.5	-1.9

# A different layout for some results above:
> OCC[C@@H]1C[C@H](O)[C@@H](O)[C@]2(CCc3ccccc3CO2)O1
  Beta cell apopt: -1 | ALR inh: 4 | T cruzi inh: -14 | B2AR ag: -1 | Calb FLC: 4 | Ecoli rRNA inh: 14 | Ecoli rRNA inh OD600: 17 | Ecoli rRNA inh RFP: -0.1 | Bfl-1 A1 inh: 0.3 | LANA-H2A inh: 0.6
> O=c1c2ccccc2[nH]c(=S)n1CCCN1CCOCC1
  Beta cell apopt: -1 | ALR inh: 87* | T cruzi inh: -18 | B2AR ag: -18 | Calb FLC: -1 | Ecoli rRNA inh: nt | Ecoli rRNA inh OD600: nt | Ecoli rRNA inh RFP: nt | Bfl-1 A1 inh: 0.0 | LANA-H2A inh: -1.5
> CC1CCC(N2CCN(S(=O)(=O)Cc3ccccc3)CC2)CC1 (centres undefined)
  Beta cell apopt: -3 | ALR inh: -5 | T cruzi inh: -16 | B2AR ag: 6 | Calb FLC: -22 | Ecoli rRNA inh: -24 | Ecoli rRNA inh OD600: -38 | Ecoli rRNA inh RFP: -8.1 | Bfl-1 A1 inh: 0.5 | LANA-H2A inh: -1.9

# Further entries.
Structure	Beta cell apopt	ALR inh	T cruzi inh	B2AR ag	Calb FLC	Ecoli rRNA inh	Ecoli rRNA inh OD600	Ecoli rRNA inh RFP	Bfl-1 A1 inh	LANA-H2A inh
Cc1cccc(S(=O)(=O)Nc2cccc(-c3cn4ccsc4n3)c2)c1	6	-3	2	-10	-3	nt	nt	nt	0.1	2.4
COc1ccc(Cl)cc1NS(=O)(=O)N1CCOCC1	4	1	-9	50*	7	21	-1	-0.2	-0.1	2.8
Cc1ccc(CSCC(=O)Nc2ccc(N3CCOCC3)cc2N2CCOCC2)cc1	-1	98*	3	6	-4	5	5	1.2	-0.1	-12
CCOC(=O)C(CCc1nnc(N)s1)C(=O)OCC	-2	-8	7	8	8	12	-3	2.4	-0.4	-0.6
CC/C(=N\NC(=O)CNC(=O)/C=C/c1ccco1)c1ccccc1	-2	-13	nt	1	nt	nt	nt	nt	1.0	-0.2
CC(=O)C[C@H](O)CC(=O)[C@H]1OC(=O)[C@H](C)CCCCc2ccccc21	-5	nt	nt	6	nt	2	-1	5.0	-0.9	4.7
COCC(=O)Nc1ccccc1-c1ccccc1	nt	-10	-18	-2	-22	6	6	-3.1	-0.5	3.9
COc1ccc(CNC(=O)CCC(=O)N2CCN(S(=O)(=O)c3ccc(Cl)cc3)CC2)cc1	-1	-1	-14	-9	3	7	1	1.4	0.3	1.8
CN(Cc1ccccc1)c1ccc(C(CC(N)=O)NC(=O)c2ccc(Br)cc2)cc1[N+](=O)[O-] (centres undefined)	-55	-5	32	-6	-17	-17	-34	0.9	1.1	0.7
Nc1c(-c2ccccc2)n[nH]c1-c1ccccc1	5	31	47	7	-26	nt	nt	nt	-8.6	2.1
COc1ccc(OC)c(-c2cc(C(F)(F)F)c3c(n2)sc2c(O)cc(=O)[nH]c23)c1	3	3	-4	1	0	10	9	-0.4	1.6	-1.3
Cc1cc(C)c(C(=O)N2CCCC(Nc3ccc(F)cc3)C2)o1 (centres undefined)	-3	99*	7	-6	-5	-3	-10	-1.2	-0.2	-1.2
Cc1ccccc1C(=O)N1CCC(C(=O)Nc2nc3ccc(F)cc3s2)CC1	nt	-4	-10	7	2	2	5	3.6	1.0	-2.1
CC1CC(C)(C)CC2(C1)NC(=O)N(CC(=O)NCc1ccccc1F)C2=O (centres undefined)	0	-2	-2	2	-5	0	2	1.1	1.0	0.7
O=C(NC1CCCCC1)NC1CC2CCC(C1)N2C(=O)NCc1ccccc1 (centres undefined)	4	9	-7	nt	5	nt	nt	nt	0.4	2.2
C#CCN(C(=O)c1ccc(OC2CCN(Cc3ccccn3)CC2)cc1)C1CCCCC1	-2	-2	4	-1	-8	-1	-12	1.0	-0.3	-0.1
CN(Cc1ccccc1)S(=O)(=O)c1cccc2nsnc12	-12	0	-7	-5	-4	3	0	-1.3	0.3	4.8
COC(=O)[C@]1(C)CCC[C@@]2(C)C3CC[C@@]4(C)C[C@]3(CC[C@H]12)C[C@H]4O (some centres undefined)	-4	-7	18	-2	-2	-6	2	1.8	0.6	-1.2
OC(COCc1ccccc1)CN1CCN(c2ccccc2F)CC1 (centres undefined)	-4	3	-6	0	-19	nt	nt	nt	-0.5	0.5
CC(OC(=O)CCN=C1NS(=O)(=O)c2ccccc21)C(=O)Nc1ccc(N(C)C)cc1 (centres undefined)	2	99*	-11	-1	nt	4	10	1.6	-0.6	6.9
COc1ccc(CCNS(=O)(=O)c2ccc3c(c2)CCN3C(=O)CCC(=O)O)cc1OC	-5	-1	-8	5	-2	nt	nt	nt	0.5	1.8
CCCCC(CC)C1OCC(C[N+]2(C)CCOCC2)O1 (centres undefined)	0	-3	-3	-3	?	7	13	5.8	?	5.5
COc1ccc(NC(=O)c2ccc(Oc3ncccn3)cc2)cc1	-3	9	-11	5	3	nt	nt	nt	-3.0	1.9
COc1ccc(N(CC(=O)Nc2ccccc2C(=O)NCc2ccco2)S(C)(=O)=O)cc1	7	-4	20	-3	-2	-11	-12	7.1	0.4	-0.9
O=C(CSc1nnc(SCc2cccc3ccccc23)s1)N/N=C/C=C/c1ccccc1[N+](=O)[O-]	-5	-5	0	16	-5	nt	nt	nt	-0.9	6.2
CCS(=O)(=O)N1CCC(C(=O)NCC2CCCO2)CC1 (centres undefined)	-3	-3	-1	-2	-3	nt	nt	nt	0.1	-1.0

# Gathered by group: the entries above with a COOH group
Structure	Beta cell apopt	ALR inh	T cruzi inh	B2AR ag	Calb FLC	Ecoli rRNA inh	Ecoli rRNA inh OD600	Ecoli rRNA inh RFP	Bfl-1 A1 inh	LANA-H2A inh
O=C1CCCC/C1=C\Nc1ccc(C(=O)O)c(O)c1	-1	12	-10	-4	-27	17	9	6.2	-7.6	-2.3
COc1ccc(CCNS(=O)(=O)c2ccc3c(c2)CCN3C(=O)CCC(=O)O)cc1OC	-5	-1	-8	5	-2	nt	nt	nt	0.5	1.8

# Full records, looked up by structure. Order of screens: Beta cell apopt | ALR inh | T cruzi inh | B2AR ag | Calb FLC | Ecoli rRNA inh | Ecoli rRNA inh OD600 | Ecoli rRNA inh RFP | Bfl-1 A1 inh | LANA-H2A inh
# O=C(CSc1nnc(SCc2cccc3ccccc23)s1)N/N=C/C=C/c1ccccc1[N+](=O)[O-] in the list: -5 | -5 | 0 | 16 | -5 | nt | nt | nt | -0.9 | 6.2
# COc1ccc(N(CC(=O)Nc2ccccc2C(=O)NCc2ccco2)S(C)(=O)=O)cc1 in the list: 7 | -4 | 20 | -3 | -2 | -11 | -12 | 7.1 | 0.4 | -0.9
# COc1ccc(CCNS(=O)(=O)c2ccc3c(c2)CCN3C(=O)CCC(=O)O)cc1OC in the list: -5 | -1 | -8 | 5 | -2 | nt | nt | nt | 0.5 | 1.8
# CCS(=O)(=O)N1CCC(C(=O)NCC2CCCO2)CC1 (centres undefined) in the list: -3 | -3 | -1 | -2 | -3 | nt | nt | nt | 0.1 | -1.0

# Assay outcomes (PubChem BioAssay)
